NOMO-1 viab: STK33 inhibitor candidate reducing NOMO-1 cell viability. 37,000 tested, 7.5% active. AID 2330. NOMO-1 AML viability, CellTiter-Glo luminescence, 72 h. inhibition, % (test concentration not listed);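 active means most replicates above 80%; inconclusive means exactly half above 80%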;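 further: wells of about 30 µL received 25 nL stock; 0% = median of vehicle wells and 100% = reference inhibitor level; the first replicate is given; inactives centre near 10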
An asterisk follows results filed as active; ? = inconclusive.

mol	NOMO-1 viab
CC(C)NC(=O)N(C)C[C@@H]1Oc2ccc(NS(=O)(=O)c3ccccc3)cc2C(=O)N([C@@H](C)CO)C[C@@H]1C	1
Cc1ccc(C)c(N(CC(=O)Nc2ccc(Br)c(Cl)c2)S(C)(=O)=O)c1	9
O=C(Cn1ncc2ccccc2c1=O)Nc1cccc([N+](=O)[O-])c1	-7
COC(=O)CSc1nc2ccccc2[nH]1	49
C[C@@H]1CN([C@H](C)CO)C(=O)c2cc(NC(=O)CCCN(C)C)ccc2O[C@@H]1CN(C)S(=O)(=O)c1ccccc1	2
COc1ccc(-c2nn(C)c(=O)c3ccccc23)cc1NC(=O)Cn1nc(C)c2ccccc2c1=O	64
C[C@@H]1CN([C@@H](C)CO)C(=O)c2cccc(NC(=O)c3ccc(-c4nccs4)cc3)c2O[C@H]1CN(C)C(=O)Nc1ccc2c(c1)OCO2	4
C[C@@H]1CCCCO[C@H](CN(C)S(=O)(=O)c2ccc(F)cc2)[C@@H](C)CN([C@H](C)CO)C(=O)c2cc(NS(=O)(=O)c3cccs3)ccc2O1	26
COc1ccc(CN(C)C[C@H]2Oc3ccc(NC(=O)NC(C)C)cc3CC(=O)N([C@H](C)CO)C[C@H]2C)cc1	7
COc1cc(NC(=S)NCCN2CCOCC2)c(OC)cc1Cl	-11
C[C@H]1CN([C@@H](C)CO)C(=O)c2cccc(NC(=O)Nc3ccccc3)c2O[C@H]1CN(C)C(=O)Nc1ccc(C(F)(F)F)cc1	59
CC(C)NC(=O)Nc1cccc2c1O[C@@H](CN(C)C(=O)NC(C)C)[C@@H](C)CN([C@@H](C)CO)C2=O	6
COc1ccc(S(=O)(=O)Nc2ccc3c(c2)CC(=O)N([C@@H](C)CO)C[C@H](C)[C@@H](CN(C)Cc2ccc(-c4ccccc4)cc2)O3)cc1	125*
Cc1ccc(N(CC(=O)Nc2ccccc2-c2ccccc2)S(C)(=O)=O)cc1	12
C[C@@H]1CN([C@H](C)CO)C(=O)c2cc(N(C)C)ccc2O[C@@H]1CN(C)C(=O)Nc1ccc2c(c1)OCO2	14
C[C@H](CO)N1C[C@H](C)[C@@H](CN(C)CC2CCCCC2)Oc2ccc(NC(=O)Nc3ccc(C(F)(F)F)cc3)cc2C1=O	127*
NC(=O)CSc1nc2ccccc2s1	31
Cn1c(=O)c2c(nc(NCc3cccnc3)n2Cc2cccc(C(F)(F)F)c2)n(C)c1=O	37
C[C@@H]1CN([C@H](C)CO)C(=O)Cc2cc(NS(=O)(=O)c3ccc(F)cc3)ccc2O[C@H]1CN(C)Cc1ccc(-c2ccccc2)cc1	89*
CCOc1ccc(C2(CC(=O)Nc3ccccc3)C(=O)c3ccccc3C2=O)cc1OC	1
CCOc1ccc(NS(=O)(=O)c2cc(C(=O)O)ccc2OC)cc1	17
CCCCn1c(Br)nc2c1c(=O)[nH]c(=O)n2C	11
O=C(O)CCc1ccc(-c2ccc(F)cc2)n1-c1ccc(C(=O)O)cc1	-12
C[C@@H]1CN([C@H](C)CO)C(=O)Cc2cc(NS(=O)(=O)c3ccc(F)cc3)ccc2O[C@@H]1CN(C)C(=O)Nc1ccccc1	-1
Cc1cc(C(=O)Nc2cccc3c2O[C@@H](CN(C)Cc2ccc4c(c2)OCO4)[C@@H](C)CN([C@@H](C)CO)C3=O)n(C)n1	9
O=C1NC(c2ccccc2)(C(F)(F)F)C(=O)N1Cc1cccnc1 (stereo unspecified)	-18
CS(=O)(=O)N(CC(=O)N1CCOCC1)c1ccc2c3c(cccc13)CC2	4
CCCC(=O)n1nc(-c2ccccc2)nc1NCc1ccco1	5
C[C@H]1CN([C@@H](C)CO)C(=O)c2cc(NS(=O)(=O)c3ccc(F)cc3)ccc2O[C@H]1CN(C)C(=O)Nc1ccc2c(c1)OCO2	5
C[C@@H]1CCCCO[C@H](CN(C)C(=O)c2ccccc2)[C@@H](C)CN([C@H](C)CO)C(=O)c2cc(NC(=O)Nc3ccc4c(c3)OCO4)ccc2O1	-10
CS(=O)(=O)N(CC(=O)Nc1ccc(Cl)c(Cl)c1)c1ccc(I)cc1	53
COc1ccc(C(=O)CSc2nnc(-c3ccccc3)n2-c2ccc(Br)cc2)cc1	26
Cn1c(NCCO)nc2c1c(=O)n(Cc1ccccc1Cl)c(=O)n2C	3
COc1ccc(-c2cc(=O)c3c(OC)cc(OC)cc3o2)cc1	-7
C[C@@H]1CN([C@@H](C)CO)C(=O)c2cc(NS(C)(=O)=O)ccc2O[C@@H]1CN(C)Cc1ccccc1	36
C[C@@H]1CN([C@H](C)CO)C(=O)c2cccc(NS(C)(=O)=O)c2O[C@H]1CN(C)Cc1ccc(Cl)c(Cl)c1	-11
C[C@H]1CN([C@@H](C)CO)C(=O)c2cccc(NC(=O)c3nc4ccccc4s3)c2O[C@H]1CN(C)S(=O)(=O)c1cn(C)cn1	22
CC(=O)c1cccc(NC(=O)Cn2nc([N+](=O)[O-])c(Br)c2C)c1	32
O=C(COc1ccccc1[N+](=O)[O-])Nc1ccc2oc(-c3ccc(F)cc3Cl)nc2c1	21
C[C@H](CO)N1C[C@H](C)[C@H](CN(C)S(C)(=O)=O)Oc2ccc(NC(=O)CCC(F)(F)F)cc2C1=O	13
C[C@H]1CN([C@@H](C)CO)C(=O)c2cc(NC(=O)Nc3ccc(C(F)(F)F)cc3)ccc2O[C@H]1CN(C)Cc1ccc(C(=O)Nc2ccccc2N)cc1	7
C[C@@H]1CN([C@H](C)CO)C(=O)Cc2cc(NC(=O)CCC(F)(F)F)ccc2O[C@H]1CN(C)C(=O)Nc1ccc2c(c1)OCO2	22
C[C@H]1CN([C@@H](C)CO)C(=O)c2cc(NC(=O)CCN3CCOCC3)ccc2O[C@@H]1CN(C)Cc1ccc(C(F)(F)F)cc1	-5
N#Cc1cc[n+](CC(=O)c2ccc(NC(=O)c3ccccc3)cc2)cc1	26
C[C@@H]1CN([C@@H](C)CO)C(=O)Cc2cc(NC(=O)Nc3ccc(C(F)(F)F)cc3)ccc2O[C@@H]1CN(C)S(=O)(=O)c1cccs1	111*
O=C1C(Cc2ccc(-c3nn[nH]n3)cc2)=C(c2ccccc2)S(=O)(=O)c2ccccc21	43
Cc1noc(C)c1NC(=O)N(C)C[C@@H]1Oc2ccc(NS(=O)(=O)c3c(C)noc3C)cc2C(=O)N([C@@H](C)CO)C[C@@H]1C	1
O=C(COc1ccc(Cl)cc1)Nc1ccc(O)cc1C(=O)O	-12
Cc1noc(C)c1NC(=O)Nc1cccc2c1O[C@@H](CN(C)S(C)(=O)=O)[C@H](C)CN([C@@H](C)CO)C2=O	15
C[C@@H]1CN([C@@H](C)CO)C(=O)c2cccc(NC(=O)Nc3ccc4c(c3)OCO4)c2O[C@@H]1CN(C)S(C)(=O)=O	-1
C[C@@H]1CCCCO[C@H](CN(C)C(=O)NC2CCCCC2)[C@@H](C)CN([C@H](C)CO)C(=O)c2cc(N(C)C)ccc2O1	20
Cc1ccc(Oc2ncc(C(F)(F)F)cc2Cl)c2c1CCC2	?
O=C(O)CSc1cn(Cc2ccccc2)c2ccccc12	10
C[C@@H]1CCCCO[C@@H](CN(C)C(=O)Cc2ccccc2)[C@@H](C)CN([C@H](C)CO)C(=O)c2cc(NS(=O)(=O)c3cn(C)cn3)ccc2O1	16
O=C(CCc1nc(-c2ccccc2Cl)no1)Nc1ccc(Cl)c(Cl)c1	-2
COc1cc(S(=O)(=O)Nc2ccncc2)c(OC)cc1Cl	8
COc1ccc(-n2c(SCc3nc4ccccc4s3)nnc2-c2cccnc2)cc1	32
C[C@H]1CN([C@@H](C)CO)C(=O)c2cc(N(C)C)ccc2O[C@H]1CN(C)Cc1ccc(-c2ccccc2)cc1	24
CCn1c(SCC(=O)Nc2ccc(Br)c(Cl)c2)nnc1-c1ccccc1	10
COc1ccc(NC(=O)N(C)C[C@H]2Oc3ccc(NC(=O)Nc4cccc5ccccc45)cc3CC(=O)N([C@@H](C)CO)C[C@H]2C)cc1	14

Additional structures follow:
mol	NOMO-1 viab
C[C@@H]1CN([C@@H](C)CO)C(=O)c2cccc(NC(=O)c3nc4ccccc4s3)c2O[C@H]1CN(C)Cc1ccc(C(=O)Nc2ccccc2N)cc1	118*
CCCC(=O)Nc1ccc(N)cc1	-25
COc1ccc(S(=O)(=O)N(C)C[C@@H]2Oc3ccc(NC(=O)Nc4ccc(C(F)(F)F)cc4)cc3CC(=O)N([C@H](C)CO)C[C@H]2C)cc1	-13
COc1ccc(CN(C)C[C@@H]2Oc3ccc(NC(=O)CCN4CCOCC4)cc3C(=O)N([C@@H](C)CO)C[C@@H]2C)cc1	23
CCn1c(SCC(=O)Nc2ccc3c(c2)OCCO3)nnc1-c1ccncc1	-7
C[C@@H]1CN([C@H](C)CO)C(=O)c2cc(NC(=O)Nc3ccccc3)ccc2O[C@@H]1CN(C)S(=O)(=O)c1cn(C)cn1	-2
Cc1cc(-c2nnc(SCC(=O)c3ccccc3Cl)n2C)no1	34
CC(C)NC(=O)N(C)C[C@H]1Oc2c(NC(=O)c3ccc(-c4nccs4)cc3)cccc2C(=O)N([C@H](C)CO)C[C@@H]1C	27
C[C@@H]1CN([C@H](C)CO)C(=O)c2cccc(NC(=O)Nc3ccc4c(c3)OCO4)c2O[C@H]1CN(C)Cc1ccc2c(c1)OCO2	101*
C[C@H]1CN([C@@H](C)CO)C(=O)c2cc(NC(=O)Nc3ccc(C(F)(F)F)cc3)ccc2O[C@@H]1CN(C)CC1CCCCC1	59
O=C(COc1ccccc1[N+](=O)[O-])Nc1ccc(-c2nc3cc(Cl)ccc3o2)cc1	35
Cc1noc(C)c1S(=O)(=O)Nc1cccc2c1O[C@H](CN(C)Cc1ccc3c(c1)OCO3)[C@H](C)CN([C@H](C)CO)C2=O	-2
Cc1noc(C)c1NC(=O)Nc1ccc2c(c1)C(=O)N([C@H](C)CO)C[C@@H](C)[C@H](CN(C)Cc1ccc(C(=O)O)cc1)O2	26
CCn1c(SCC(=O)c2ccccc2)nnc1-c1ccco1	12
C[C@@H]1CN([C@@H](C)CO)C(=O)c2cccc(NC(=O)c3cnccn3)c2O[C@H]1CN(C)C	-20
CC(=O)Nc1ccc(OCC(O)Cn2nc(C)cc2C)cc1 (stereo unspecified)	-3
COC(=O)c1ccc(NC(=O)C(C)N2c3cccc4cccc(c34)S2(=O)=O)cc1 (stereo unspecified)	0
C[C@@H]1CN([C@H](C)CO)C(=O)Cc2cc(NC(=O)Nc3ccc(C(F)(F)F)cc3)ccc2O[C@H]1CN(C)S(=O)(=O)c1ccccc1	17
CC1CN(c2nc3ccccc3nc2SCC(=O)NCc2ccccc2Cl)CC(C)O1 (stereo unspecified)	2
COc1ccc(OC)c(S(=O)(=O)N2CCC(C(=O)Nc3cccc(C(F)(F)F)c3)CC2)c1	25
C[C@H]1CN([C@@H](C)CO)C(=O)Cc2cc(NC(=O)Nc3ccc(F)cc3)ccc2O[C@@H]1CN(C)S(=O)(=O)c1cccs1	-7
C[C@@H]1CN([C@H](C)CO)C(=O)Cc2cc(NC(=O)Cn3cnnn3)ccc2O[C@@H]1CN(C)C(=O)Nc1ccc2c(c1)OCO2	4
C[C@@H]1CN([C@H](C)CO)C(=O)c2cc(NS(=O)(=O)c3ccc(Cl)cc3)ccc2O[C@H]1CN(C)CC1CCCCC1	38
C[C@@H]1CN([C@@H](C)CO)C(=O)Cc2cc(NC(=O)C3CC3)ccc2O[C@@H]1CN(C)Cc1ccccc1	29
Cc1ccc(NC(=O)CN(C)S(=O)(=O)c2ccc(C)cc2)cc1	-5
CC(C)NC(=O)Nc1ccc2c(c1)CC(=O)N([C@@H](C)CO)C[C@H](C)[C@H](CN(C)Cc1ccc(Cl)c(Cl)c1)O2	44
C[C@@H]1CN([C@H](C)CO)C(=O)c2cc(NC(=O)CCCN(C)C)ccc2O[C@H]1CN(C)S(=O)(=O)c1ccc(F)cc1	-6
C[C@H](CO)N1C[C@H](C)[C@@H](CN(C)C(=O)NC2CCCCC2)Oc2ccc(NC(=O)c3ccncc3)cc2C1=O	16
COc1ccc2oc(-c3ccccc3)cc(=O)c2c1	-7
COc1ccc(-c2nnnn2C)cc1S(=O)(=O)NCc1ccccc1	10
COc1ccc(CN(C)C[C@H]2Oc3c(NC(=O)NC4CCCCC4)cccc3C(=O)N([C@H](C)CO)C[C@H]2C)cc1	14
C[C@@H]1CN([C@@H](C)CO)C(=O)c2cccc(NS(=O)(=O)c3cn(C)cn3)c2O[C@@H]1CN(C)S(=O)(=O)c1ccc(F)cc1	22
CCSc1ncnc2c1sc1nc3c(cc12)COC(C)(C)C3	29
C[C@@H]1CCCCO[C@H](CN(C)S(=O)(=O)c2ccccc2)[C@@H](C)CN([C@H](C)CO)C(=O)c2cc(NS(=O)(=O)c3ccc(F)cc3)ccc2O1	1
C[C@H](CO)N1C[C@H](C)[C@H](CN(C)Cc2ccncc2)Oc2ccc(NS(=O)(=O)c3ccccc3)cc2C1=O	-5

Assay outcomes deposited in PubChem BioAssay by Broad Institute.

Not all compounds are listed. The share of hits here may be higher or lower than overall.
